AF4-AF9 inh = inhibitors of AF4 peptide binding to AF9, primary screen, biochemical, AlphaScreen, biotin-AF4 peptide, FLAG-AF9, single point. hit rate 0.47% among 350,000. Protein AF-9 (Homo sapiens), P42568. inhibition, % at 10 µM;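 active = every replicate reaching a set inhibition limit, whatever the replicate mean, cut at about 25% in these data; inconclusive = mean inhibition reaches that limit but some replicates miss it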;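 note: 0% = plate neutral control median and 100% = total signal loss; the record names both 10 and 1 µM as test concentration; the first replicate is given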
Target sequence (P42568 whole entry, looked up): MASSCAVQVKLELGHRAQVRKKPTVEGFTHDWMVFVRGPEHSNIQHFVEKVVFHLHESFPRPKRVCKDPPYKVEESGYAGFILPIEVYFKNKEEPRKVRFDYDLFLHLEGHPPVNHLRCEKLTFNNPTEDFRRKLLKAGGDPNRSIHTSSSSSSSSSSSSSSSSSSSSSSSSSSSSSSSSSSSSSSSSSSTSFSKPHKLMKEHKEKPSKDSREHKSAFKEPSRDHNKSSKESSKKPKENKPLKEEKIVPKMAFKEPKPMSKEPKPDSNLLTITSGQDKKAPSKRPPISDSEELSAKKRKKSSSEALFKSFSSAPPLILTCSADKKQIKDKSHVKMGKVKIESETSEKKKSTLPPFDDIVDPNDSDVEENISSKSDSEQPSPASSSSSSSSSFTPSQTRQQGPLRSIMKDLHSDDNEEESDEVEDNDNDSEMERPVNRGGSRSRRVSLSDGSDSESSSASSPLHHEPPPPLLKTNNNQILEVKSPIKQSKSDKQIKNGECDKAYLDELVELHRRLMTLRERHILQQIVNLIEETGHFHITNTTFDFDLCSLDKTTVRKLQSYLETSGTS
* marks the source's active call; other numbers are inactive results; ? = inconclusive; & = joins results of further samples.

SMILES	AF4-AF9 inh
COCC(=O)Nc1ccc2c(c1)[C@@H]1C[C@H](CC(=O)NCc3ccc4c(c3)OCO4)O[C@H](CO)[C@@H]1O2	-0.3
CCCN(C)C[C@@H]1Oc2cc(C#CC3(O)CCCC3)ccc2S(=O)(=O)N([C@H](C)CO)C[C@@H]1C	1.8
O=C(C(=O)N1CCC(CNS(=O)(=O)c2ccc(C(F)(F)F)cc2)CC1)c1cc2ccccc2o1	3.3
C[C@H]1CN([C@@H](C)CO)S(=O)(=O)c2ccc(C#CC3CC3)cc2O[C@H]1CN(C)S(C)(=O)=O	0.3
Cc1ccc(S(=O)(=O)N(C)C[C@H]2OCCCC[C@@H](C)Oc3ccc(NC(=O)CCC(F)(F)F)cc3C(=O)N([C@@H](C)CO)C[C@H]2C)cc1	-1.7
Cc1ccc(S(=O)(=O)Nc2ccc3c(c2)C(=O)N([C@H](C)CO)C[C@H](C)[C@@H](CN(C)C(=O)Nc2ccc(F)cc2)OCCCC[C@H](C)O3)cc1	0.9
C[C@@H]1CN([C@H](C)CO)S(=O)(=O)c2ccc(C#CC(C)(C)O)cc2O[C@@H]1CN(C)Cc1ccc(F)cc1	5.7
COc1ccccc1-c1cccc(-c2nc(C(=O)N3CCCCC3)cc3c2[C@@H](CCO)N(S(=O)C(C)(C)C)C3)c1 (stereo not given in full)	2.8
O=C(C1CCC1)N1CC(=O)N2[C@H](CO)[C@@H](c3ccc(Br)cc3)[C@@H]2C1	-1.1
COCC(=O)N(C)C[C@@H]1Oc2cc(-c3ccc(C#N)cc3)ccc2S(=O)(=O)N([C@@H](C)CO)C[C@H]1C	-0.6
CNC[C@H]1OCCCC[C@@H](C)Oc2ccc(NC(=O)Nc3ccc(F)cc3)cc2C(=O)N([C@@H](C)CO)C[C@@H]1C	2.9
CC(C)NC(=O)Nc1ccc2c(c1)CC(=O)N([C@@H](C)CO)C[C@H](C)[C@H](CN(C)S(=O)(=O)c1cn(C)cn1)O2	-1.4
C[C@H]1CCCCO[C@H](CN(C)S(=O)(=O)c2cn(C)cn2)[C@@H](C)CN([C@@H](C)CO)C(=O)c2cc(NC(=O)CCCN(C)C)ccc2O1	0.5
CCCNC(=O)c1cc2c(c(-c3cccc(-c4cccc(OC)c4)c3)n1)[C@H](CCO)N([S@@](=O)C(C)(C)C)C2	-0.7
COc1ccc(CN(C)C[C@H]2OCCCC[C@@H](C)Oc3ccc(NC(=O)CCC(F)(F)F)cc3C(=O)N([C@@H](C)CO)C[C@@H]2C)cc1	-0.1
CO[C@@H]1CN(C)C(=O)c2cc(NS(=O)(=O)c3cccc(F)c3)ccc2OC[C@@H](C)N(C(=O)Cc2cccnc2)C[C@@H]1C	1.1
C[C@@H]1CN([C@H](C)CO)C(=O)Cc2cc(NS(=O)(=O)c3cccs3)ccc2O[C@H]1CN(C)C(=O)Nc1ccc2c(c1)OCO2	-2.7
N#C[C@H]1[C@@H](c2ccc(C#Cc3ccccc3F)cc2)[C@H](CO)N1C(=O)C1CCC1	-3.6
O=C(C[C@@H]1C[C@H]2c3cc(NC(=O)CC4CC4)ccc3O[C@H]2[C@@H](CO)O1)NCc1cc(F)ccc1F	-1.4
COc1ccc(S(=O)(=O)N(C)C[C@H]2Oc3c(NC(=O)Nc4ccc(C(F)(F)F)cc4)cccc3C(=O)N([C@@H](C)CO)C[C@H]2C)cc1	-1.6
CO[C@H](C(=O)N(C)C[C@@H]1OCc2ccccc2-c2ccccc2C(=O)N([C@@H](C)CO)C[C@H]1C)c1ccccc1	-6.0
C[C@H](CO)N1C[C@H](C)[C@@H](CN(C)S(=O)(=O)c2ccccc2)Oc2c(NC(=O)CCCCCC(=O)Nc3ccccc3N)cccc2C1=O	0.4
Cc1noc(C)c1NC(=O)Nc1ccc2c(c1)C(=O)N([C@@H](C)CO)C[C@@H](C)[C@H](CN(C)C(=O)Nc1ccc3c(c1)OCO3)OCCCC[C@H](C)O2	0.0
CCCCc1ccc(S(=O)(=O)NC(=O)C2(C)CCN2C(=O)c2c(C)noc2C)cc1 (stereo not given)	-4.9
COCC(=O)N1[C@H](C(=O)NCc2ccccc2)[C@@H](CO)[C@@H]2Cn3c(cccc3=O)[C@@H]21	-0.2
C[C@H](CO)N1C[C@H](C)[C@H](CN(C)S(C)(=O)=O)Oc2ccc(NC(=O)CCN3CCOCC3)cc2CC1=O	1.3
COC(=O)[C@]12C[C@H](CC(=O)NCc3cccs3)C(=O)N(Cc3ccccc3)C1=C[C@H](C1CCCC1)O[C@@H]2C	2.3
COc1ccc(Br)c(Cn2c(C)c(C(=O)NCc3cccs3)sc2=O)c1	-9.2
CCCNC(=O)N1C[C@H](O)COC[C@H]2O[C@H](CC(=O)N[C@@H]3CCN(Cc4ccccc4)C3)CC[C@@H]21	-2.1
CC(C)NC(=O)Nc1ccc2c(c1)CC(=O)N([C@H](C)CO)C[C@@H](C)[C@H](CN(C)S(C)(=O)=O)O2	-1.7
Cc1ccc(C(=O)N(CCc2ccccc2)Cc2ccccc2)cc1S(=O)(=O)N1CCOCC1	?
CC=Cc1ccc2n(c1=O)C[C@H]1[C@H](CO)[C@@H](C(=O)Nc3ccc(-c4ccccc4)cc3)N(C(C)=O)[C@@H]21 (mixture of isomers)	8.6
CCCNC(=O)Nc1ccc2c(c1)C(=O)N(C)C[C@H](OC)[C@@H](C)CN(C(=O)C1CCOCC1)[C@@H](C)CO2	-0.1
CCCNC(=O)N(C)C[C@@H]1Oc2ncc(C#Cc3ccncc3)cc2C(=O)N([C@@H](C)CO)C[C@H]1C	-8.3
O=C(CN1CCOCC1)N[C@H]1CC[C@H](CCNC(=O)C2CCC2)O[C@@H]1CO	1.0
CCCCS(=O)(=O)N1C2=NC(C(=O)OCC)=C(C(=O)OCC)C3N(Cc4ccc(C#N)cc4)c4ccccc4[C@]23C[C@H]1C(=O)OC (stereo not given in full)	-7.2
Cc1noc(C)c1NC(=O)Nc1ccc2c(c1)C(=O)N([C@@H](C)CO)C[C@H](C)[C@@H](CN(C)S(=O)(=O)c1c(C)noc1C)OCCCC[C@@H](C)O2	-1.9
C/C=C/c1cnc2c(c1)C(=O)N([C@H](C)CO)C[C@H](C)[C@@H](CN(C)S(=O)(=O)c1ccc(C)cc1)O2	-1.7
C[C@@H]1CCCCO[C@@H](CN(C)S(=O)(=O)c2cccs2)[C@@H](C)CN([C@@H](C)CO)C(=O)c2cc(NC(=O)Nc3ccc(F)cc3)ccc2O1	-5.5
C[C@H]1CNC(=O)c2c(C(=O)N3CCN(c4ccccc4)CC3)ncn21	1.5

An excerpt from above in order of length of the SMILES, high to low.
SMILES	AF4-AF9 inh
C/C=C/c1cnc2c(c1)C(=O)N([C@H](C)CO)C[C@H](C)[C@@H](CN(C)S(=O)(=O)c1ccc(C)cc1)O2	-1.7
C[C@H](CO)N1C[C@H](C)[C@H](CN(C)S(C)(=O)=O)Oc2ccc(NC(=O)CCN3CCOCC3)cc2CC1=O	1.3
O=C(CN1CCOCC1)N[C@H]1CC[C@H](CCNC(=O)C2CCC2)O[C@@H]1CO	1.0
C[C@H]1CNC(=O)c2c(C(=O)N3CCN(c4ccccc4)CC3)ncn21	1.5

Next results
SMILES	AF4-AF9 inh
Cc1noc(C)c1S(=O)(=O)Nc1ccc2c(c1)C(=O)N([C@H](C)CO)C[C@H](C)[C@@H](CN(C)C(=O)C1CCCCC1)OCCCC[C@H](C)O2	-2.2
CS(=O)(=O)Nc1ccc2c(c1)[C@@H]1C[C@H](CC(=O)NCc3ccccc3)O[C@H](CO)[C@@H]1O2	-1.0
COc1cccc(NC(=O)N2C[C@@H](O)COC[C@H]3O[C@H](CC(=O)NC4Cc5ccccc5C4)CC[C@@H]32)c1	-0.7
Cc1ccc(Cc2c(C(C)(C)C)nc3ccc(Br)cn23)cc1	4.8
CO[C@H](CN(C)C(=O)c1cnccn1)[C@H](C)CN([C@H](C)CO)S(=O)(=O)c1ccc(C)cc1	0.2
O=C(C[C@H]1CC[C@H]2[C@@H](COC[C@@H](O)CN2S(=O)(=O)c2cccc(Cl)c2)O1)NC1Cc2ccccc2C1	7.4
CCCNC(=O)N(C)C[C@H]1Oc2ncc(C#CCc3ccccc3)cc2C(=O)N([C@@H](C)CO)C[C@@H]1C	-0.3
Cc1ccc(-c2ccc([C@H]3[C@H]4CN(C(=O)Nc5ccc(F)cc5)CC(=O)N4[C@H]3CO)cc2)cc1	-0.8
O=C(C[C@@H]1CC[C@@H]2[C@H](COC[C@H](O)CN2C(=O)Nc2ccc(Cl)c(Cl)c2)O1)NC1CCC1	0.5
O=C(C[C@@H]1CC[C@H]2[C@@H](COC[C@H](O)CN2Cc2nccs2)O1)NCc1ccccc1	-1.6
O=C(C[C@@H]1CC[C@@H]2[C@H](COC[C@H](O)CN2C(=O)c2cccnc2)O1)NCc1ccccc1	-1.9
CS(=O)(=O)Nc1ccc2c(c1)[C@@H]1C[C@H](CC(=O)NCc3cccnc3)O[C@@H](CO)[C@@H]1O2	-1.7
O=C(Cc1ccccn1)N1CC(=O)N2[C@@H](CO)[C@@H](c3ccc(C#CCC4CCCC4)cc3)[C@@H]2C1	3.6
CO[C@H]1CN(C)C(=O)c2ccc(NC(C)=O)cc2OC[C@@H](C)N(C(=O)C2CCOCC2)C[C@@H]1C	-3.7
COCCNC(=O)C1(C)CCCN(C(=O)c2cc(F)cc(F)c2)C1 (stereo not given)	-0.1
C[C@H]1CN([C@@H](C)CO)C(=O)c2cc(C#Cc3ccccn3)cnc2O[C@H]1CN(C)C(=O)c1ccccn1	-4.4
C[C@@H]1CN([C@@H](C)CO)C(=O)c2cc(NS(C)(=O)=O)ccc2O[C@H]1CN(C)C	-5.3
C[C@@H]1CN([C@H](C)CO)C(=O)Cc2cc(NC(=O)CCCCCC(=O)Nc3ccccc3N)ccc2O[C@@H]1CN(C)Cc1ccncc1	13
C[C@@H]1CN([C@@H](C)CO)C(=O)c2cccc(NC(=O)c3ccncc3)c2O[C@@H]1CN(C)C(=O)Nc1cccc2ccccc12	-3.1
CC(C)NC(=O)N1CC2(C1)[C@@H](c1ccccc1)[C@@H](CO)N2C(=O)C1CCCCC1	-3.3
O=C(C[C@H]1C[C@H]2c3cc(NC(=O)c4ccc5c(c4)OCO5)ccc3O[C@H]2[C@H](CO)O1)NCCc1ccccc1	-10
CO[C@@H]1CN(C)C(=O)c2ccc(NC(=O)Nc3ccc4c(c3)OCO4)cc2OC[C@@H](C)N(C(C)=O)C[C@H]1C	10
C[C@@H]1CN([C@@H](C)CO)C(=O)Cc2cc(NC(=O)CCC(F)(F)F)ccc2O[C@@H]1CN(C)Cc1ccc(-c2ccccc2)cc1	0.4
C[C@@H]1CN([C@H](C)CO)C(=O)c2cc(-c3ccc(C#N)cc3)cnc2O[C@H]1CN(C)CC1CCOCC1	-2.5
C=CC(=O)N1C/C(=C/c2ccc(Cl)cc2)C(=O)/C(=C\c2ccc(Cl)cc2)C1	4.2
CN(C)CCCNC(=O)[C@@H]1[C@@H](CO)[C@@H]2Cn3c(ccc(-c4ccc(F)cc4)c3=O)[C@H]1N2C	-0.5
Cc1ccc(S(=O)(=O)Nc2ccc3c(c2)C(=O)N([C@@H](C)CO)C[C@H](C)[C@@H](CN(C)CC2CCCCC2)O3)cc1	-2.0
C[C@H]1CN([C@@H](C)CO)C(=O)CCCn2nncc2CO[C@@H]1CN(C)Cc1cccc(C(=O)O)c1	0.1&-5.4
Cc1noc(C)c1S(=O)(=O)Nc1ccc2c(c1)CC(=O)N([C@@H](C)CO)C[C@@H](C)[C@@H](CN(C)S(=O)(=O)c1ccc(F)cc1)O2	-0.8
C[C@@H]1CCCCO[C@@H](CN(C)Cc2ccc(C(=O)O)cc2)[C@H](C)CN([C@H](C)CO)C(=O)c2cc(NC(=O)c3ccccc3)ccc2O1	-5.0
CCCN(CCC)Cc1cc(=O)oc2cc(C)cc(C)c12	-0.3
COc1ccc(S(=O)(=O)Nc2ccc3c(c2)C(=O)N([C@H](C)CO)C[C@H](C)[C@@H](CN(C)Cc2ccc(Oc4ccccc4)cc2)O3)cc1	0.9
CC1(Cc2ccccc2Cl)C(=O)Nc2c(Cl)ccc(Cl)c21 (stereo not given)	0.3
CC(C)NC(=O)N1Cc2cc(C(=O)NC3CCCCC3)nc(-c3cccc(-c4cccnc4)c3)c2[C@H]1CCO	2.7
COc1ccc(C#Cc2ccc([C@H]3[C@@H](CO)N4CCCCN(C(=O)Nc5ccccc5F)C[C@@H]34)cc2)cc1	-5.3
C[C@@H]1CN([C@@H](C)CO)C(=O)c2cc(C#CCc3ccccc3)cnc2O[C@@H]1CN(C)C(=O)C1CCOCC1	-1.7
COC(=O)C[C@@H]1CC[C@H]2[C@@H](COc3ccc(NS(=O)(=O)c4ccc(F)cc4)cc3C(=O)N2C)O1	-2.3
C[C@@H]1CN([C@@H](C)CO)C(=O)Cc2cc(NC(=O)NC3CCCCC3)ccc2O[C@@H]1CN(C)C(=O)Nc1cccc2ccccc12	0.1
CO[C@H]1CN(C)C(=O)c2cc(NC(=O)C3CCC3)ccc2OC[C@H](C)N(CC2CCCCC2)C[C@H]1C	1.4
C[C@H]1CN([C@@H](C)CO)C(=O)c2cc(NC(=O)c3ccncc3)ccc2O[C@H]1CN(C)C(=O)Nc1ccccc1	-4.4
CCN1[C@@H]2c3ccc(-c4ccc(F)cc4)c(=O)n3C[C@H]1[C@H](CO)[C@H]2C(=O)Nc1nccs1	-9.7

Part of the list above, with values ahead of the structure.
AF4-AF9 inh | Compound
2.7 | CC(C)NC(=O)N1Cc2cc(C(=O)NC3CCCCC3)nc(-c3cccc(-c4cccnc4)c3)c2[C@H]1CCO
4.2 | C=CC(=O)N1C/C(=C/c2ccc(Cl)cc2)C(=O)/C(=C\c2ccc(Cl)cc2)C1
-1.7 | C[C@@H]1CN([C@@H](C)CO)C(=O)c2cc(C#CCc3ccccc3)cnc2O[C@@H]1CN(C)C(=O)C1CCOCC1
0.9 | COc1ccc(S(=O)(=O)Nc2ccc3c(c2)C(=O)N([C@H](C)CO)C[C@H](C)[C@@H](CN(C)Cc2ccc(Oc4ccccc4)cc2)O3)cc1
0.4 | C[C@@H]1CN([C@@H](C)CO)C(=O)Cc2cc(NC(=O)CCC(F)(F)F)ccc2O[C@@H]1CN(C)Cc1ccc(-c2ccccc2)cc1

High-throughput results: PubChem, Broad Institute

These rows are one share of the data; count on the stated rates, not on these rows.
